Screening data as filed in PubChem BioAssay.
Ecoli rRNA inh – reduced GFP signal of wild-type E. coli, primary screen, bacterial rRNA inhibitor project, GFP/RFP fluorescence, OD600, single point. GFP signal change (wild-type ribosome), % (no concentration beside the values). E. coli WT GFP vs humanized-ribosome RFP mutants, 24 h; stronger effect = lower value; DMSO median 0, no signal -100. 350,000 tested, 1.6% active;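 active = significant combined selectivity score with lowered wild-type GFP, culture density cut under 30%, mutant RFP and density less affected; inactive = any of these conditions unmet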; note: one replicate is shown; some compounds called inactive have numbers as strong as hits
ALR inh – inhibitors of human ALR sulfhydryl oxidase, primary screen, biochemical, H2O2 detection, HRP-luminol luminescence, single point | FAD-linked sulfhydryl oxidase ALR (Homo sapiens), P55789 | purified ALR, DTT oxidation | inhibition, % (test concentration not listed) | 290,000 tested, 3.8% active;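 active = mean and each replicate at 75% or more; inconclusive = only one of the two met; inactive = neither met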;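 note: stock transfer was 7.5 nL into about 7.5 µL; 0% = neutral wells and 100% = wells with inactivated enzyme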
E coli growth – E. coli growth inhibition, primary screen, OD600; Escherichia coli growth, 23 h; stronger effect = lower value; 330,000 tested, 0.21% active; OD600 absorbance (test concentration not listed);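 active = OD600 absorbance below the run mean of sample wells minus 3.6 SD, in any replicate, cut at about 0.56 in these data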;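 note: stock transfer was 300 nL into about 60 µL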
FGF22 binding – binders of human FGF22 protein, primary screen, FGF22 synaptogenesis inhibitor project, biophysical, thermal shift, single point; Fibroblast growth factor 22 (Homo sapiens), Q9HCT0; recombinant FGF22 thermal shift, SYPRO orange fluorescence; percent of sucrose octasulfate shift, DMSO zero; calls only at 9.99 µM; 340,000 tested, 1.5% active; AID 651658, 2012;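 active = melting point raised past a set limit in the mean and every replicate; inconclusive = no clear call; three in four hits are not shown here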
Target sequence (Q9HCT0 whole entry, looked up): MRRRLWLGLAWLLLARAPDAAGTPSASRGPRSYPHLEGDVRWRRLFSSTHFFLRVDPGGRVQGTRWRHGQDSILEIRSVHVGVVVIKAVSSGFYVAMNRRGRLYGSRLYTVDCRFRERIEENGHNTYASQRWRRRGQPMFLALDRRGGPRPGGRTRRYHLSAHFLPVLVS
UCH37 inh – inhibitors of human UCH37 deubiquitinase, primary screen, biochemical, Ub-AMC cleavage, fluorescence. 330,000 tested, 0.33% active. Ubiquitin carboxyl-terminal hydrolase isozyme L5 (Homo sapiens), Q9Y5K5. inhibition, % (concentration not given with the values). purified proteasome/UCH37;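 active = mean of two replicates above 20%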;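 note: 0% = compound-free wells with enzyme and 100% = wells lacking proteasome; stock transfer was 100 nL into about 20 µL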
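Signal – fluorescence, ex 355 nm, em 460 nm · System – Proteasome-bound UCH37 · Input – 0.15 nM proteasome as dispensed · Timing – 30 min preincubation with enzyme, 25 min cleavage at room temperature · Read-out basis – percent inhibition of cleavage signal versus uninhibited and no-proteasome wells · Medium – Tris-HCl pH 7.4 with ATP-MgCl2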
HNF4A DNA FP – change in binding of human HNF4A to DNA, primary screen, biochemical, fluorescence polarization, FITC-DNA | 1 h | activity change, % at 10 µM | 360,000 tested, 0.3% active | AID 1224865, 2016; in the data active = activity change above about 30%, passing the limit was not always enough;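 note: controls were the assay level and a saturating level of protein; the project sought stronger binding though the title names inhibitors; some compounds called inactive have numbers as strong as hits; positive values seem to mean higher polarization but the record does not say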
Target sequence (P41235 whole entry, looked up): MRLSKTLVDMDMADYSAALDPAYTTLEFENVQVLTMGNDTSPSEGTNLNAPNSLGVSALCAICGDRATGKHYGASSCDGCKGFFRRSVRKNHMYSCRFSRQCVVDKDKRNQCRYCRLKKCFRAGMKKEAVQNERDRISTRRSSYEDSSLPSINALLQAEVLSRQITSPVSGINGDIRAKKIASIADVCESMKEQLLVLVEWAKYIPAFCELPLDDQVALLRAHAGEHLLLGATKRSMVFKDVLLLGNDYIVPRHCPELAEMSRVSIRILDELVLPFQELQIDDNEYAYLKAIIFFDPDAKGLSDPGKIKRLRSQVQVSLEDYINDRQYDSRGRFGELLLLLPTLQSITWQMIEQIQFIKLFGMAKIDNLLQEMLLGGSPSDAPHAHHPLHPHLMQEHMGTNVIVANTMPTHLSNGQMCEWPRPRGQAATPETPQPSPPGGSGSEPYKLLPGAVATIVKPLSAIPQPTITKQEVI
B2AR ag – beta2AR agonists driving receptor internalization, primary screen, cell-based, FAP fluorogen, flow cytometry | Beta-2 adrenergic receptor (Homo sapiens), P07550 | Am2.2-beta2AR cells; reference of the scale not given here | response, % (no concentration beside the values) | 340,000 tested, 0.43% active | AID 504454, 2011;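 active = response above a set limit, near 3 SD of response in nonfluorescent compounds, cut at about 42% in these data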;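 note: stock transfer was 100 nL into about 11 µL; a reference agonist was the positive control; negative values mostly stem from fluorescent compounds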
Target sequence (P07550 whole entry, looked up): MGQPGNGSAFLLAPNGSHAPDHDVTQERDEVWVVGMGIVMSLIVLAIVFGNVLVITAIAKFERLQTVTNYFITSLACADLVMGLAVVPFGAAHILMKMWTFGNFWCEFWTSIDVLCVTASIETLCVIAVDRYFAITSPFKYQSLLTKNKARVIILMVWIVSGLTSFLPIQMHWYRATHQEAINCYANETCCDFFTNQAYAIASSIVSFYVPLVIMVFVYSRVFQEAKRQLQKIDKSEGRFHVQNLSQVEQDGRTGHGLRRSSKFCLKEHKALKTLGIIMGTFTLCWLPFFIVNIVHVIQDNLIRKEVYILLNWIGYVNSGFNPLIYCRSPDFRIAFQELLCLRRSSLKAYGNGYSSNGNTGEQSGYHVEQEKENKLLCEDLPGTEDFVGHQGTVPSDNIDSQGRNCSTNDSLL
Ecoli rRNA inh OD600 – second read-out of Ecoli rRNA inh, no call of its own (marks repeat the call); OD600 change, %; measured here: OD600 growth;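 optical density of the mix in the first replicate; 0 = DMSO median and -100 = no signal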
Ecoli rRNA inh RFP – second read-out of Ecoli rRNA inh, no call of its own (marks repeat the call); RFP signal change, %; measured here: RFP humanized mutant strains;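 first replicate; 0 = DMSO median and -100 = no signal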
Starred values were filed as active, the others as inactive; i = inactive; ? = inconclusive; . = no result given; & = joins results of further samples. This is a subset; count on the stated rates, not on these rows.

Every second line gives: Ecoli rRNA inh	Ecoli rRNA inh OD600	Ecoli rRNA inh RFP	ALR inh	E coli growth	FGF22 binding	UCH37 inh	HNF4A DNA FP	B2AR ag
Cn1nnnc1SCc1nnc(-c2ccc(F)cc2)o1
    .	.	.	.	0.8	.	4.2	0.7	2
CCOC(=O)c1c(S(=O)(=O)Nc2ccc(F)cc2C)c(C)n(C)c1C
    5	0	1.5	-2	0.71	i	2.3	1.3	10
COc1ccccc1Nc1nnc(SCc2cc(=O)n3cc(C)ccc3n2)s1
    0	0	-3.3	-2	0.69	i	6.8	-1.6	-3
CC(=O)Nc1ccc(S(=O)(=O)N(C)c2ccccc2)cc1
    .	.	.	1	0.72	.	-1.5	-2.3	1
COC(=O)Cc1ccc(NC(=S)Nc2ccc(N3CCOCC3)cc2)cc1
    9	5	31	89*	0.7	.	2.0	0.1	8
CC1(C)NC(=O)N(CCCSc2ccc(Cl)cc2)C1=O
    .	.	.	8	0.69	.	0.6	-1.5	0
CC(=O)c1c(C)[nH]c(C(=O)OCC(=O)NCCC(C)C)c1C
    .	.	.	-5	0.66	.	3.3	-3.3	-3
O=C1CC(=O)C(n2cncn2)C(c2c(F)cccc2Cl)C1 (stereo unspecified)
    .	.	.	0	0.69	.	0.5	1.7	-1
O=c1c2c3c(sc2ncn1/N=C/c1ccc([N+](=O)[O-])o1)CCCC3
    8	-1	-0.4	-14	.	.	.	-0.1	32
Cc1ccc(S(=O)(=O)Nc2nc(C)c(C(=O)Nc3ccccc3)s2)cc1
    -13	-24	-4.7	-8	0.69	.	0.7	1.9	7
CN(C)C1(CNC(=O)C2CCN(S(=O)(=O)c3c(Cl)cccc3Cl)CC2)CCCCC1
    3	0	-0.8	-1	0.72	i	3.8	1.9	-8
O=C(Nc1ccc(F)cc1)c1cc(S(=O)(=O)N2CCCCC2)cs1
    .	.	.	9	0.67	.	6.8	-1.5	-5
CCc1nc(C)cn1S(=O)(=O)c1cc(F)ccc1OC
    7	10	1.9	-5	0.65	i	4.2	-1.1	4
O=c1nc(-c2ccccc2Cl)c2cc(F)ccc2[nH]1
    7	-3	-2.2	-13	0.65	i	i	2.8	4
COCCNS(=O)(=O)c1ccc(C2CNC(=O)C2)cc1 (stereo unspecified)
    12	22	-0.9	-2	0.74	i	1.0	2.7	1
O=C(/C=C/c1ccccc1[N+](=O)[O-])NCCCN1CCCC1=O
    16	13	0.9	4	0.71	i	2.4	4.6	-4
CCCC(=O)Nc1ccc(-c2cnc(-c3ccc(NC(=O)CCC)cc3)nc2)cc1
    4	13	-0.5	-3	0.73	i	-3.7	1.1	-5
COc1ccc(NC(=O)c2nc[nH]c2C(=O)Nc2ccccc2C)cc1
    .	.	.	-16	0.73	.	-256	0.5	-1
CC(=O)c1cc(-c2ccccc2)n(CCC(=O)NC(C)(C)C)c1C
    .	.	.	?	0.67	.	-3.6	-3.0	5
O=C(Nc1cnn(Cc2ccccc2)c1)NC12CC3CC(CC(C3)C1)C2
    .	.	.	-7	0.72	.	4.9	1.6	-2
CCC(=O)NC(=S)Nc1ccc(NC(=O)COc2ccc([N+](=O)[O-])cc2)cc1
    8	-1	-1.0	-6	0.68	i	0.9	-5.7	-11
Cc1onc(-c2c(F)cccc2Cl)c1C(=O)OCC(=O)c1c[nH]c2ccccc12
    -53	-66	-15	1	0.69	i	2.0	3.0	8
CCn1c(SCC(=O)Nc2cc(C)on2)nc2c([nH]c3ccccc32)c1=O
    6	11	-1.7	-11	0.75	i	-28	1.5	3
c1ccc(C2=Nc3cccnc3C(c3ccccc3)=NN2)cc1
    0	4	0.9	69	0.72	i	-2.3	1.2	6
CC(C)(C)NC(=O)c1ccccc1NC(=O)c1ccc2c(c1)OCO2
    6	0	-0.9	.	0.73	i	-0.8	2.2	-13
CCc1ccc2nc(Nc3nc(COC)cc(=O)[nH]3)nc(C)c2c1
    18	-10	-8.7	2	0.63	i	5.2	2.2	-13
O=C1/C(=C\c2ccc([N+](=O)[O-])cc2)CCc2ccccc21
    .	.	.	-13	0.69	i	0.9	3.4	5
CC(=O)Nc1ccc2nc(NC(=O)COc3ccccc3)sc2c1
    4	1	1.2	.	0.74	i	3.8	0.6	4
C[C@H](CO)N1C[C@H](C)[C@@H](CN(C)Cc2ccc(C(=O)O)cc2)Oc2c(cccc2N(C)C)C1=O
    2&14	0&9	-1.8&-2.0	1	0.75	i	-1.5	-2.4	-3
CCOC(=O)C1=C(c2ccccc2)NC(=O)NC1c1ccc(OCC#N)c(OC)c1 (stereo unspecified)
    .	.	.	-4	0.74	.	7.1	-1.5	3
Cc1ccccc1-n1c(SCC(=O)N2CCN(c3ccccn3)CC2)nnc1N1CCOCC1
    -2	4	-1.6	.	0.65	i	0.2	0.7	-7
Nc1nonc1N1CCCCC1
    .	.	.	7	0.69	.	4.3	2.0	-4
CC(C)C(=O)N1CCC(Cc2ccccc2)CC1
    0	6	-0.7	-20	0.64	i	1.2	1.1	1
Cc1cccc(C(=O)NC(=S)Nc2ccc(Cc3ccncc3)cc2)c1
    .	.	.	-7	0.75	.	1.1	1.6	-5
Cc1ccc(C(=O)NCC(=O)OCC(=O)Nc2ccc3[nH]c(=O)[nH]c3c2)cc1
    -3	9	-2.9	-14	0.63	i	0.2	-5.0	-4
COc1cc(OC)cc(N(C(=O)CNC(=O)c2ccco2)C(C(=O)NCC2CCCO2)c2ccccc2)c1 (stereo unspecified)
    5	10	0.1	-8	0.71	i	0.9	-3.5	2
CCCS(=O)(=O)N1CCCC(C(=O)NCCCN2CCN(c3ccc(F)cc3)CC2)C1 (stereo unspecified)
    6	4	0.6	43	0.7	.	-0.1	-0.6	10
N/C(=N\OC(=O)Cc1ccccc1[N+](=O)[O-])c1cccc(Br)c1
    -10	-3	3.3	-7	.	i	.	-2.6	16
CCCCn1c(N)c(N(CC(C)C)C(=O)CSc2nnc(C)n2-c2ccc(OC)cc2)c(=O)[nH]c1=O
    9	16	-1.6	-11	0.69	i	0.2	0.9	-10
Cc1cc(OCc2cccc(Cl)c2)c(C)cc1CN1CCOCC1
    -25	-53	-2.6	-1	0.64	i	1.6	-4.6	1
O=C(OCc1ccccc1)N1CCC2CC1c1cc(N3CCN(S(=O)(=O)c4cc(Cl)cc(Cl)c4)CC3)ccc12 (stereo unspecified)
    3	7	1.9	.	.	i	.	-1.0	.
Cc1oc2ccccc2c1CNC(=O)N(C)C
    -1	-3	-2.8	-8	0.62	i	2.7	0.5	2
O=C(Nc1ccc(S(=O)(=O)N2CCOCC2)cc1)c1ccc([N+](=O)[O-])s1
    8	11	-0.7	-14	0.7	i	3.3	2.5	4
CCOC(=O)c1sc(NC(=O)c2ccc(S(=O)(=O)N(C)C)cc2)cc1C
    .	.	.	2	0.71	.	-47	-1.4	8
CCOc1ccc(NC(=O)CN(C)C(=O)/C=C/c2ccc(S(=O)(=O)N3CCCCCC3)cc2)cc1OCC
    2	5	-2.8	-1	0.67	i	2.0	-1.2	-2
CC(NS(=O)(=O)c1ccc2c(c1)CC(C)N2C(=O)C1CC1)c1ccccc1 (stereo unspecified)
    0	-16	1.2	-5	0.64	i	1.2	-2.1	-8
Cc1cc2nc(/N=C(\N)NC(=O)N3c4ccccc4Sc4ccccc43)nc(C)c2cc1C
    -8	-4	7.0	92*	0.69	i	-4.0	3.2&0.6	4&5
Cc1ccc(C(=O)O/N=C(\N)c2ccccc2)c(Cl)c1
    24	14	1.4	-5	0.64	i	5.3	-1.8	6
C=CCn1c(SCC(=O)N2CCc3ccccc3C2)nnc1-c1ccncc1
    .	.	.	-1	0.69	.	3.6	3.9	-2
Cc1cccc(CSc2ccc3nnc(-c4cccnc4)n3n2)c1
    .	.	.	-1	.	.	3.8	2.4	-6
COc1ccc2c(c1OC)C(=O)OC2CC(=O)c1ccc2c(c1)OCO2 (stereo unspecified)
    .	.	.	-1	0.74	.	4.0	-1.8	10
CCOC(=O)c1[nH]c2ccc(OC)cc2c1NS(=O)(=O)c1ccc(OC)cc1OC
    .	.	.	.	0.71	.	-9.2	-1.5	0
COc1ccc(/C=C/C(=O)N(CCC(N)=O)c2ccccc2)cc1S(=O)(=O)N1CCOCC1
    -2	3	-0.5	.	0.69	i	5.0	0.0	1
COC(=O)[C@@]1(Cc2ccc(OC)cc2)[C@H]2c3cc(C(=O)N4CCCC4)n(Cc4ccccc4)c3C[C@H]2CN1C(=O)c1ccccc1
    21	9	9.3	.	.	i	.	1.8	.
C/C=C/c1ccc(OCCCCN2CCC(C)CC2)c(OC)c1
    -5	3	-4.4	-138	0.66	i	1.8	-0.9	5
COc1ccc(-n2nnc3c(=O)n(CC(=O)N4CCCC4)cnc32)cc1
    .	.	.	-3	0.74	.	3.8	2.9	-4
CCCN(CC(=O)Nc1ccc(C(N)=O)cc1)CC(=O)Nc1ccccc1C
    8	4	1.9	-1	0.7	i	0.5	2.7	6
CCOc1cc(Cl)c(NC(C)=O)cc1OCC
    .	.	.	-2	0.62	.	2.3	-1.0	-5
O=C(Nc1nccs1)C1Cc2ccccc2CN1S(=O)(=O)c1ccc(F)cc1 (stereo unspecified)
    .	.	.	5	0.65	.	0.6	-3.0	-3
FC(F)(F)c1nc(=S)c2ccccc2[nH]1
    12	6	0.4	.	0.64	i	13	3.0	-3

Entries listed so far marked active in ALR inh:
structure	Ecoli rRNA inh	Ecoli rRNA inh OD600	Ecoli rRNA inh RFP	ALR inh	UCH37 inh	HNF4A DNA FP	B2AR ag
COC(=O)Cc1ccc(NC(=S)Nc2ccc(N3CCOCC3)cc2)cc1	9	5	31	89*	2.0	0.1	8
Cc1cc2nc(/N=C(\N)NC(=O)N3c4ccccc4Sc4ccccc43)nc(C)c2cc1C	-8	-4	7.0	92*	-4.0	3.2&0.6	4&5

Next results follow:
Every second line gives: Ecoli rRNA inh	Ecoli rRNA inh OD600	Ecoli rRNA inh RFP	ALR inh	E coli growth	FGF22 binding	UCH37 inh	HNF4A DNA FP	B2AR ag
CCC(=O)Nc1ccc(C(=O)NNC(=O)c2cccc(C)c2)cc1
    15	12	0.1	-22	0.69	i	1.5	-4.0	0
CCCc1nc2ccc(NC(=O)c3ccco3)cc2c(=O)n1Cc1ccccc1Cl
    .	.	.	-6	0.75	.	-8.7	2.2	19
Cc1ccc(C2=NOC(=O)/C2=C\C=C\c2ccccc2)cc1
    13	12	15	.	0.68	i	9.7	15	10
COc1ccc(NC(=O)c2csc3c2CCCCC3)c(OC)c1
    -30	-34	-7.7	-10	0.68	i	-2.0	-1.5	-9
O=S(=O)(Nc1ccccn1)c1ccc(Br)cc1
    0	8	-1.7	2	.	i	.	-0.4	-2
O=[N+]([O-])c1ccc2c(c1)nc1n2CCSC1
    14	-7	0.2	.	0.64	i	7.4	1.1	3
